# ALR H2O2 inh: inhibitors of human sulfhydryl oxidase ALR | inhibition, % (test concentration not listed) | purified ALR, DTT oxidation, H2O2 HRP-luminol luminescence | 290,000 compounds, 3.8% hits | P55789;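 active = mean and each replicate at 75% or more; inconclusive = only one of the two met; inactive = neither met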;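 also: stock transfer was 7.5 nL into about 7.5 µL; 0% = neutral wells and 100% = wells with inactivated enzyme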
# Target sequence (P55789 whole entry, looked up): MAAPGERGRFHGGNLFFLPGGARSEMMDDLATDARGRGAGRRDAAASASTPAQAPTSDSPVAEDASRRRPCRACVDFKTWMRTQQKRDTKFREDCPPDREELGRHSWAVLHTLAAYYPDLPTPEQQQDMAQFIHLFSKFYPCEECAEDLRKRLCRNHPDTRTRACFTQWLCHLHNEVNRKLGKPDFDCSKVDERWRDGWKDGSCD
# Ecoli rRNA inh: selective bacterial rRNA inhibition in E. coli | E. coli WT GFP vs humanized-ribosome RFP mutants, fluorescence, 24 h; active compounds read low; DMSO median 0, no signal -100 | GFP signal change (wild-type ribosome), % (no concentration beside the values) | 350,000 compounds, 1.6% hits;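 active = significant combined selectivity score with lowered wild-type GFP, culture density cut under 30%, mutant RFP and density less affected; inactive = any of these conditions unmet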; also: one replicate is shown; some compounds called inactive have numbers as strong as hits
# HNF4A DNA FP: change in binding of human HNF4 alpha to DNA. HNF4a-FITC DNA binding, fluorescence polarization, 1 h. 360,000 compounds, 0.3% hits. P41235. activity change, % at 10 µM; in the data active = activity change above about 30%, passing the limit was not always enough;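 also: controls were the assay level and a saturating level of protein; the project sought stronger binding though the title names inhibitors; some compounds called inactive have numbers as strong as hits; positive values seem to mean higher polarization but the record does not say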
# Ecoli growth: E. coli growth inhibition. Escherichia coli growth, OD600, 23 h; active compounds read low. AID 1053175. 330,000 compounds, 0.21% hits. OD600 absorbance (concentration not given with the values);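 active = OD600 absorbance below the run mean of sample wells minus 3.6 SD, in any replicate, cut at about 0.56 in these data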;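 also: stock transfer was 300 nL into about 60 µL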
# Vif A3G: inhibitors of Vif binding to APOBEC3G peptide, primary screen, biochemical, TR-FRET, GST-Vif 1-94, biotin-A3G peptide, dose response retest (AID 1117319); TR-FRET GST-Vif / biotin-A3G peptide binding; higher % means a stronger effect; test concentration not given here; strong numbers were not always called active; one-dose inhibition, %; IC50 in µM for titrated hits; 260,000 compounds, 0.57% hits;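 active = above the screen mean plus three standard deviations and confirmed in dose response; inconclusive = results disagree or hit not tested in dose response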;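 also: Vif residues 1-94 fused to GST binding biotinylated APOBEC3G peptide 110-148; 0% = full assay without inhibitor and 100% = GST in place of GST-Vif; retest series ran down from 100 µM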
# MLL AF4-AF9 inh: inhibitors of human MLL-AF4/AF9 interaction; P42568; AlphaScreen, biotin-AF4 peptide binding to FLAG-AF9; inhibition, % at 10 µM; 350,000 compounds, 0.47% hits; AID 651704;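 active = every replicate reaching a set inhibition limit, whatever the replicate mean, cut at about 25% in these data; inconclusive = mean inhibition reaches that limit but some replicates miss it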;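 also: 0% = plate neutral control median and 100% = total signal loss; the record names both 10 and 1 µM as test concentration; the first replicate is given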
# Target sequence (P42568 whole entry, looked up): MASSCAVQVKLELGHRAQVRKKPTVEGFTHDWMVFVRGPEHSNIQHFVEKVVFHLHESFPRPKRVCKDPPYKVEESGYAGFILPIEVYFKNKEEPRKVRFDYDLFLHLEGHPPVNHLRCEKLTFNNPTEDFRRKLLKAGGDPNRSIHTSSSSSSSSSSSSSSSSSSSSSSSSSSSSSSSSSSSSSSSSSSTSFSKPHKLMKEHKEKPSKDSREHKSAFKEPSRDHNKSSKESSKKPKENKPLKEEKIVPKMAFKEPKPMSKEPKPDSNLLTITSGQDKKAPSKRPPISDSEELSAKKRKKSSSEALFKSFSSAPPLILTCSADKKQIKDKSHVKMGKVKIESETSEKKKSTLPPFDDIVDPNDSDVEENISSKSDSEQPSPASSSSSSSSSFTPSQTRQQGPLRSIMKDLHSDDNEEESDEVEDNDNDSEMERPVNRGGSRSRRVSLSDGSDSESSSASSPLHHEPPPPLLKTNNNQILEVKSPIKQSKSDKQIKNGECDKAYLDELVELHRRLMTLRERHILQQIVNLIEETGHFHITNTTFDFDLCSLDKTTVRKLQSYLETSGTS
# FGF22 binding: shifts melting point of recombinant human FGF22. 340,000 compounds, 1.5% hits. AID 651658. recombinant FGF22 thermal shift, SYPRO orange fluorescence; percent of sucrose octasulfate shift, DMSO zero. calls only at 9.99 µM. Q9HCT0;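 active = melting point raised past a set limit in the mean and every replicate; inconclusive = no clear call; three in four hits are not shown here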
# Target sequence (Q9HCT0 whole entry, looked up): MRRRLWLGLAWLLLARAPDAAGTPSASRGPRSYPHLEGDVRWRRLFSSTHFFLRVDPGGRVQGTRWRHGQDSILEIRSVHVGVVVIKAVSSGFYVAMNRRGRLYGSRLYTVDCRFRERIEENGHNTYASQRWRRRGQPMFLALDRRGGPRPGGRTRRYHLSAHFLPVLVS
# Ecoli rRNA inh OD600: further read-out of Ecoli rRNA inh, marked with its call; OD600 change, %; measured here: OD600 growth;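 optical density of the mix in the first replicate; 0 = DMSO median and -100 = no signal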
# Ecoli rRNA inh RFP: further read-out of Ecoli rRNA inh, marked with its call; RFP signal change, %; measured here: RFP humanized mutant strains;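 first replicate; 0 = DMSO median and -100 = no signal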
# Numbers without * were called inactive; i = inactive; ? = inconclusive; / = no result given; & = joins results of further samples.
SMILES,ALR H2O2 inh,Ecoli rRNA inh,Ecoli rRNA inh OD600,Ecoli rRNA inh RFP,HNF4A DNA FP,Ecoli growth,Vif A3G,MLL AF4-AF9 inh,FGF22 binding
Cn1cnc(S(=O)(=O)N[C@@H]2C=C[C@H](CC(=O)Nc3ccccc3)O[C@@H]2CO)c1,/,-2,-8,-0.7,/,/,/,-0.8,i
COCC1CCN(C(=O)c2cc(COc3cncc(Cl)c3)on2)C1 (centres undefined),-3,12,7,-11,0.2,0.62,-5%,-5.3,i
CCOc1ccc(N2C(=O)CSC23CCCCC3)cc1,24,/,/,/,0.1,0.74,30%,/,/
CCO[C@@H]1OC(C(=O)NCc2nc3ccccc3[nH]2)=C[C@H](c2coc3ccccc3c2=O)[C@H]1CCCO,-9,-14,-19,-0.1,0.8,0.74,/,-2.5,i
COc1ccc(CCNC(=O)Cc2cc(OCc3ccccc3)c(OC)cc2[N+](=O)[O-])cc1OC,-8,/,/,/,-2.3,0.78,6%,/,/
O=C(O)C1CC(O)CN1C(=O)c1ccco1 (centres undefined),17,/,/,/,3.9,0.66,13%,/,/
O=C(NCC1CC1)c1ccc2c3n(nc2c1)-c1ccc(Cl)cc1CO3,7,-4,10,-6.8,0.2,0.67,/,-1.6,i
NC(=O)C1CCN(c2nc(-c3cccnc3)cs2)CC1,11,2,-8,-3.9,4.3,/,/,-5.1,i
COc1ccc(C(=O)Nc2nccs2)cc1[N+](=O)[O-],-6,9,12,-0.8,-0.3,0.62,/,0.0,i
CO[C@@H]1CN(C)C(=O)c2cc(NC(=O)NC3CCCCC3)ccc2OC[C@@H](C)N(CCc2ccccc2)C[C@H]1C,/,-6&-3,-2&-9,15&3.9,-2.9,/,/,3.2&0.8,i
O=C(CN1C(=O)NC2(CCCCCC2)C1=O)N1CCN(c2ccccc2)CC1,/,1,2,-0.3,0.7,0.7,11%,0.8,i
O=C(C1CCCCC1)N1CCN=C1SCc1cccnc1,100*,4,3,-2.6,3.8,0.76,-2%,-48,i
CCCCNC(=O)N(C)c1nncnc1C(=O)NC,-9,/,/,/,2.2,0.72,31%,/,/
Cc1ccccc1NC(=O)C(=O)N/N=C/c1cccc(Br)c1,-1,/,/,/,0.9,/,12%,/,/
O=Nc1ccc(NOC(=O)c2ccccc2Br)cc1,60,/,/,/,-0.5,0.69,0%,/,/
COc1ccc(OCc2cc(C(=O)N3CCCC3)no2)c2ccccc12,-43,-10,9,3.8,-1.7,0.71,/,-0.6,i
COC(=O)[C@@H]1[C@@H](CO)[C@@H]2Cn3c(ccc(-c4ccccc4)c3=O)[C@@H]2N1Cc1cccc(F)c1,/,-10,-18,5.7,/,/,/,1.3,i
C=C1C(=O)[C@]23C[C@H]1CCC2[C@]1(C)CCC[C@@](C)(C(=O)O)C1C[C@@H]3O (some centres undefined),/,9,3,-1.8,2.4,/,/,-3.0,i
CCCC(=O)Nc1ccc(C=C(C(C)=O)C(C)=O)cc1,/,14,14,2.9,5.2,0.72,13%,5.3,i
O=C(Cn1cnc2ccccc21)Nc1cc(C(F)(F)F)ccc1N1CCOCC1,/,/,/,/,1.1,0.74,?,/,/
COc1ccc(-c2nc3c(C)cc(Br)cn3c2Cc2cccc(Cl)c2)cc1OC,/,-5,-5,1.0,4.9,/,/,0.2,i
O=C(C[C@@H]1CC[C@@H]2[C@H](COC[C@H](O)CN2S(=O)(=O)c2cccc(Cl)c2)O1)N1CCOCC1,/,-2,1,-1.9,/,/,/,-1.0,i
Cc1ccc(S(=O)(=O)N(C)C[C@@H]2Oc3c(NC(=O)CCCCCC(=O)Nc4ccccc4N)cccc3C(=O)N([C@@H](C)CO)C[C@@H]2C)cc1,/,-5,-3,0.1,/,/,/,-0.5,i
Cc1c(P(=S)(c2ccccc2)c2ccccc2)[n+]2ccccc2n1C/C=C/c1ccccc1,/,-47,-78,-18,3.3,/,/,16,i
CO[C@H]1CN(C)C(=O)c2ccc(NC(=O)C3CCCCC3)cc2OC[C@@H](C)N(C(=O)c2ccccc2)C[C@@H]1C,/,-4,-5,-1.9,/,/,/,-1.7,i
CCOc1cc(CNn2cn[nH]c2=S)cc(Cl)c1OCc1ccccc1F,90*,-17,-16,1.3,0.8,0.69,/,1.4,i
CCOc1ccc2oc(C(=O)N(CC)CC(=O)Nc3ccc(NC(C)=O)cc3)c(C)c2c1,-6,0,8,-1.1,0.2,0.64,/,-1.5,i
CC(C)CN1CCC(=O)N(CCN=[N+]=[N-])CC1,0,6,10,-2.1,1.6,0.64,/,-10.0,i
N#C/C(=C\c1cccn1-c1ccccc1)C(=O)NC1CCCCC1,0,/,/,/,-3.6,0.68,-3%,16,i
Cc1ccc(N2C(=O)CC(N3CCSCC3)C2=O)c(C)c1 (centres undefined),-9,17,0,1.0,-1.2,0.65,-7%,0.6,i
CCC(C(=O)N1CCN(Cc2ccc3c(c2)OCO3)CC1)n1nnc2ccccc2c1=O (centres undefined),/,-4,-9,-5.1,0.3,/,5%,1.7,i
CCOc1cc(N2CCOCC2)c(OCC)cc1NC(=O)C(C)(C)C,-63,4,-9,2.9,-2.7,0.71,31%,6.5,i
COc1ccc2c3c(n(C)c2c1)[C@@H](CO)N(C(C)=O)CC31CCN(C(=O)Nc2ccc(F)cc2)CC1,/,-6,-5,5.1,/,/,/,3.7,i
COc1ccc(C(C(=O)NCc2ccccc2)N(Cc2ccco2)C(=O)c2snc(C(N)=O)c2N)cc1OC (centres undefined),/,1,-7,-1.4,-2.7,0.71,/,5.3,i
CCCOc1ccc(C(=O)Nc2ccc(N3CCN(C(=O)c4ccco4)CC3)cc2)cc1,-3,11,12,2.8,-1.7,0.72,/,-1.4,i
CC1(C)CC(=O)C(C2c3ccccc3Oc3ccccc32)C(=O)C1,0,-10,-6,-5.1,-0.7,0.65,-6%,-0.6,i
CCC/C(O)=C1\C(=O)CC(C)(C)CC1=Nc1ccc(OC)cc1OC,-18,/,/,/,1.1,0.74,7%,/,/
CC(=O)c1c(C)[nH]c(C(=O)OCC(=O)N(CC(C)C)C2CCS(=O)(=O)C2)c1C (centres undefined),/,6,12,-4.7,5.2,0.67,13%,0.2,i
O=C(O)CSc1ccc2ccccc2n1,3,/,/,/,0.2,0.73,-7%,/,/
COC(=O)CSc1nnc(C)c(=O)[nH]1,-6,/,/,/,3.0,0.72,1%,/,/
CN(C)CCNC(=O)c1c(CSc2ccc(Cl)cc2)noc1C(=O)NCc1ccccc1,-15,4,3,15,0.1,0.71,/,1.2,i
C=CC[C@H](CC(=O)NCCO)C(=O)N[C@@H](C)COC(=O)[C@@H](CC=C)CC(=O)OC(C)(C)C,1,17,2,4.9,-0.4,/,/,-0.2,i
Cc1cc(C)c[n+](C[n+]2cc(C)cc(C)c2)c1,5,25,19,2.6,2.9,0.7,7%,-2.3,i
O=C(C1CCN(S(=O)(=O)c2cccs2)CC1)N1CCCCCC1,-1,/,/,/,-3.5,0.63,7%,/,/
COc1ccc(OCC(=O)N2CCN(c3cccc(Cl)c3)CC2)cc1,-6,/,/,/,-1.3,0.68,-7%,/,/
O=C(Nc1ccc2c(c1)OCO2)N[C@@H]1C=C[C@H](CC(=O)N2CCN(c3ccccc3)CC2)O[C@H]1CO,/,-2,-7,0.2,/,/,/,3.7,i
CCc1ccccc1-n1c(SCC(=O)NC)nnc1-c1cccnc1,0,/,/,/,1.9,0.71,3%,/,/
Cc1ccc(S(=O)(=O)Nc2nsc(N)n2)cc1,20,/,/,/,5.6,0.63,7%,/,/
Cc1nc2ccccn2c1C(=O)NN=C1C2CC3CC(C2)CC1C3,/,/,/,/,-3.1,0.7,-4%,0.1,i
CC(C)(C)c1ccc(C(=O)N2CCC2(C)C(=O)NS(=O)(=O)c2ccc(C#N)cc2)cc1 (centres undefined),/,2,7,0.5,-2.0,/,/,-1.8,i
O=[N+]([O-])c1ccc(CNc2ccc(Cl)cc2)s1,81*,-53,-69,-19,-3.9,0.61,/,30*,i
C[C@H](CO)N1C[C@H](C)[C@H](CN(C)C)Oc2c(NC(=O)Nc3cccc4ccccc34)cccc2C1=O,/,-3,2,-2.7,/,/,/,2.5,i
Clc1ccc(C(c2nnnn2CCc2ccccc2)N2CCSCC2)cc1 (centres undefined),-17,/,/,/,-2.9,0.75,0%,/,/
COc1ccccc1CNC(=O)C[C@@H]1C[C@@H]2c3cc(NC(=O)Cc4ccncc4)ccc3O[C@@H]2[C@@H](CO)O1,/,-4,-7,-0.3,/,/,/,1.3,i
O=C(C[C@H]1C[C@H]2c3cc(NC(=O)c4ccc5c(c4)OCO5)ccc3O[C@H]2[C@H](CO)O1)NCc1cccc(F)c1,/,-2,11,-3.5,/,/,/,-8.1,i
CC(=O)c1ccc(S(=O)(=O)N2CCC(C(=O)Nc3ncc(C)s3)CC2)cc1,-2,-4,-8,-0.2,-1.2,0.71,-2%,-3.3,i
Nc1c(C(=O)N2CCOCC2)sc(=S)n1-c1ccccc1,93*,/,/,/,0.3,0.73,26%,/,/
COC(=O)c1n[nH]n(-c2cc(Cl)cc(Cl)c2)c1=O,3,-8,-4,0.2,3.8,0.65,-4%,1.9,i
O=C(CSc1ccc(-c2cccnc2)nn1)N1CCCCC1,-25,9,13,-0.7,-0.3,0.66,1%,0.8,i
CCOC(=O)C(C(=O)OCC)C(c1ccccc1)N1CCN(c2ccccc2)CC1 (centres undefined),/,3,17,-3.8,0.6,0.69,-7%,-2.1,i
# Other structures follow:
SMILES,ALR H2O2 inh,Ecoli rRNA inh,Ecoli rRNA inh OD600,Ecoli rRNA inh RFP,HNF4A DNA FP,Ecoli growth,Vif A3G,MLL AF4-AF9 inh,FGF22 binding
CN(C)c1ccc(/C=C2\CCCCC2=O)cc1,91*,-6,-7,3.8,6.6,0.68,/,1.3,i
O=C(CNc1cc(S(=O)(=O)N2CCOCC2)ccc1N1CCCC1)NCc1ccco1,61,2,8,-2.4,-2.7,0.67,-8%,-20,i
COc1ccc2c(c1OC)C(CC(C)=O)N1CCc3cc4c(cc3C1C2=O)OCO4 (centres undefined),/,7,5,3.6,1.8,/,/,3.8,i
O=C(CSc1nnc2sc3ccccc3n12)NCc1ccco1,-2,/,/,/,-4.8,0.75,-6%,/,/
C=CCn1c(COc2ccccc2-c2ccccc2)nnc1SCC(=O)NC(=O)NCc1ccco1,-7,-35,-36,-5.6,-0.1,0.69,3%,6.2,i

# One compound at a time, as listed above. Order of values: ALR H2O2 inh	Ecoli rRNA inh	Ecoli rRNA inh OD600	Ecoli rRNA inh RFP	HNF4A DNA FP	Ecoli growth	Vif A3G	MLL AF4-AF9 inh	FGF22 binding
# Record of O=C(CNc1cc(S(=O)(=O)N2CCOCC2)ccc1N1CCCC1)NCc1ccco1 = 61	2	8	-2.4	-2.7	0.67	-8%	-20	i
# Record of COc1ccc2c(c1OC)C(CC(C)=O)N1CCc3cc4c(cc3C1C2=O)OCO4 (centres undefined) = /	7	5	3.6	1.8	/	/	3.8	i

# Quoted from the listing.
# `CN(C)c1ccc(/C=C2\CCCCC2=O)cc1` – Ecoli rRNA inh = -6
# `C=CCn1c(COc2ccccc2-c2ccccc2)nnc1SCC(=O)NC(=O)NCc1ccco1` – MLL AF4-AF9 inh = 6.2
# `O=C(CSc1nnc2sc3ccccc3n12)NCc1ccco1` – HNF4A DNA FP = -4.8
# `COc1ccc2c(c1OC)C(CC(C)=O)N1CCc3cc4c(cc3C1C2=O)OCO4` (centres undefined) – Ecoli rRNA inh OD600 = 5
# `O=C(CNc1cc(S(=O)(=O)N2CCOCC2)ccc1N1CCCC1)NCc1ccco1` – MLL AF4-AF9 inh = -20

# The list is partial; the hit share may differ from the screen's.
